VDR inh – Inhibitors of the vitamin D receptor (VDR): qHTS; actives 0.93% (n = 400,000); VDR-SRC2-3 peptide fluorescence polarization, 2 h; Potency, µM, inactives show max response, negative = inhibition, hits mostly inhibitors; active means well fitted inhibition curve with a large enough effect; inconclusive means small, poorly fitted or top-dose-only effect, or another doubt; inactive means no such curve, though single readings can be large or run the other way; further: series mostly up to about 120 µM
Target sequence (P11473 whole entry, looked up): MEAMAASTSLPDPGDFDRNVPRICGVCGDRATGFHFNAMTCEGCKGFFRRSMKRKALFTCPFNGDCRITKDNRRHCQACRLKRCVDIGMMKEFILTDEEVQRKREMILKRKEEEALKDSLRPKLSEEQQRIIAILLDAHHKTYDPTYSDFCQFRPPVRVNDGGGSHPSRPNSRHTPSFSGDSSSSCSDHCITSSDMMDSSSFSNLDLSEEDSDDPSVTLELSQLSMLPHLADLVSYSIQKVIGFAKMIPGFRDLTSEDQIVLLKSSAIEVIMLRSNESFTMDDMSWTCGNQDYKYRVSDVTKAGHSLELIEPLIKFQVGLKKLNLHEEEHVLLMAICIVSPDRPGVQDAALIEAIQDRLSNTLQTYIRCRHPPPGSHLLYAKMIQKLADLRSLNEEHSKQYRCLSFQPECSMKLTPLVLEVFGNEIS
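VDR–SRC2-3 interaction, FP format. Cmpds 23 nl via pintool, brief spin, 2 h ambient incubation.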
* = called active by the depositor; & = joins results of further samples. On the % scale 0 is the no-effect control and ±100 the full control effect; potency means the concentration at half of the fitted maximal effect. A portion of the library; count on the stated rates, not on these rows.

Screening COc1ccc(CN(C)C(=O)c2ccc(NS(=O)(=O)c3ccc4[nH]c(=O)[nH]c4c3)cc2)c(OC)c1 returned VDR inh 1.8%.
`CCN(CC)CCCC(C)NC1=NCCCCC1` (stereo unspecified) gave VDR inh 2.2%.
O=C(Nc1cccnc1)c1ccc2ccccc2c1O was read as VDR inh 6.8%.
Cn1c(N)c(C(=O)COC(=O)CCCN2C(=O)c3ccccc3C2=O)c(=O)n(C)c1=O was read as VDR inh 4.7%.
Screening CCN(c1ccccc1)S(=O)(=O)c1cccc(C(=O)NCC(c2cccs2)N2CCOCC2)c1 (stereo unspecified) returned VDR inh 2.4%.
COCCCNC(=O)CCCN1C(=O)CCn2nc(-c3cn(C)c4ccccc34)cc21 was read as VDR inh -2.3%.
`CN(CC(=O)Nc1ccc(Cl)cc1)C(=O)CCNC(=O)c1ccc(Cl)cc1` gave VDR inh -1.9%.
CCOc1ccc(NC(=O)C(C)Sc2nnc(C)n2C)cc1 (stereo unspecified) was read as VDR inh inconclusive.
Screening COc1ccc(C)cc1N(C(=O)c1ccco1)C(C(=O)NC1CCCC1)c1ccc(N2CCOCC2)cc1 (stereo unspecified) returned VDR inh -5.6%.
Screening Cc1cc(=O)[nH]c(SCC(=O)Nc2nonc2C)n1 returned VDR inh -3.3%.
Screening Cc1cc(C(=O)COC(=O)c2ccc(O)cc2O)c(C)n1-c1ccc(OC(F)F)cc1 returned VDR inh -16.1%.
O=C(c1cnccn1)N1CCC2(CCCN(c3ccccn3)C2)CC1 was read as VDR inh -6.0%.
Screening CC(=O)Nc1ccc(S(=O)(=O)Nc2nnc(C3CCCCC3)s2)cc1 returned VDR inh -15.0%.
For Cc1nc(-c2ccc(Cl)cc2)sc1C1(C)CC(c2ccc(OC(F)(F)F)cc2)=NO1 (stereo unspecified) the results were VDR inh -6.0%.
For CC(C)CC(=O)Nc1ccccc1N1CCCC1 the results were VDR inh 3.9%.
Screening CC1(C)NC(=O)N(CC(=O)OCC(=O)Nc2cc(S(=O)(=O)N3CCCCC3)ccc2Cl)C1=O returned VDR inh 10.1%.
Screening Nc1cc(=O)[nH]c(SCC(=O)N2N=C(c3ccc4ccccc4c3)CC2c2ccccc2)n1 (stereo unspecified) returned VDR inh -4.4%.
Screening COc1ccc(-c2csc(NC3=NCCCCC3)n2)cc1 returned VDR inh 3.8%.
Screening COc1ccc(C(=O)n2ncc(C#N)c2N)cc1 returned VDR inh 10.7%.
`Cc1nc(SCc2ccccc2)c(C(F)(F)F)c(=O)[nH]1` gave VDR inh -1.4%.
Screening CCCCCCC(=O)Nc1nc(C)c(-c2csc(Nc3cc(Cl)ccc3OC)n2)s1 returned VDR inh -1.5%.
Nc1ncc(-c2cc3ccccc3oc2=O)s1 was read as VDR inh 5.4%.
For COC(=O)c1ccc(Oc2nc(C(N)=O)cc(-c3ccccc3)n2)cc1 the results were VDR inh -0.5%.
For CCOC(=O)c1cc(-c2cccs2)nn1CCC#N the results were VDR inh 5.6%.
`NS(=O)(=O)c1cccc(NC(=O)COC(=O)CC2Sc3ccccc3NC2=O)c1` (stereo unspecified) gave VDR inh -8.8%.
CCOC(=O)Cn1cnc2c(nnn2-c2ccc(C)cc2)c1=O was read as VDR inh -3.0%.
For COc1ccc(CNC(=O)CN(Cc2ccc(C)cc2)S(=O)(=O)c2ccc(Cl)cc2)cc1 the results were VDR inh 5.5%.
For COCC(=O)N1CCCC(C(=O)c2ccc3c4c(cccc24)CC3)C1 (stereo unspecified) the results were VDR inh -9.7%.
For Cc1cc(C)nc(NC(=O)/C=C/c2ccc3c(c2)OCO3)c1 the results were VDR inh -15.3%.
For O=C(NCCCN1CCOCC1)C1CCN(S(=O)(=O)c2ccccc2)CC1 the results were VDR inh -15.3%.
`O=C(CSC1CS(=O)(=O)c2cc([N+](=O)[O-])ccc21)NNC(=O)c1ccc(Cl)cc1` (stereo unspecified) gave VDR inh -18.3%.
For COc1ccc(C(=O)c2ccc(N3CCN(C4CC(=O)NC4=O)CC3)cc2)cc1F (stereo unspecified) the results were VDR inh -7.2%.
For CN(C)c1ccc(NC(=O)c2cccc([N+](=O)[O-])c2)c2ccccc12 the results were VDR inh -5.0%.
Screening CCn1cc(SCC(=O)NCC2CCCO2)c2ccccc21 (stereo unspecified) returned VDR inh -6.3%.
`CCOC(=O)N1CCN(C(=O)C2CCN(C(=O)c3ccc([N+](=O)[O-])cc3)CC2)CC1` gave VDR inh -1.7%.
Screening O=C(NCCC1CCCCN1S(=O)(=O)c1ccc(F)cc1)C(=O)Nc1ccccc1 (stereo unspecified) returned VDR inh -14.1%.
COc1ccc(S(=O)(=O)N2CCCOC2CNC(=O)C(=O)NCc2ccccn2)cc1 (stereo unspecified) was read as VDR inh -1.8%.
`CC(=O)Nc1ccccc1C(=O)C(=O)Nc1cccc(C(=O)NCC2CCCO2)c1` (stereo unspecified) gave VDR inh 13.5%.
For O=C(COC(=O)c1ccc(O)cc1)Nc1cc(S(=O)(=O)N2CCOCC2)ccc1N1CCOCC1 the results were VDR inh -5.8%.
For COc1cc(/C=C/C(=O)Nc2nnc(CC(C)(C)C)s2)cc(OC)c1OC the results were VDR inh 79.4µM*.

For reference, part of the list above.
CCOC(=O)Cn1cnc2c(nnn2-c2ccc(C)cc2)c1=O was read as VDR inh -3.0%.
For COc1ccc(CNC(=O)CN(Cc2ccc(C)cc2)S(=O)(=O)c2ccc(Cl)cc2)cc1 the results were VDR inh 5.5%.
For COCC(=O)N1CCCC(C(=O)c2ccc3c4c(cccc24)CC3)C1 (stereo unspecified) the results were VDR inh -9.7%.
For Cc1cc(C)nc(NC(=O)/C=C/c2ccc3c(c2)OCO3)c1 the results were VDR inh -15.3%.
For O=C(NCCCN1CCOCC1)C1CCN(S(=O)(=O)c2ccccc2)CC1 the results were VDR inh -15.3%.
`O=C(CSC1CS(=O)(=O)c2cc([N+](=O)[O-])ccc21)NNC(=O)c1ccc(Cl)cc1` (stereo unspecified) gave VDR inh -18.3%.
For COc1ccc(C(=O)c2ccc(N3CCN(C4CC(=O)NC4=O)CC3)cc2)cc1F (stereo unspecified) the results were VDR inh -7.2%.
For CN(C)c1ccc(NC(=O)c2cccc([N+](=O)[O-])c2)c2ccccc12 the results were VDR inh -5.0%.
Screening CCn1cc(SCC(=O)NCC2CCCO2)c2ccccc21 (stereo unspecified) returned VDR inh -6.3%.
`CCOC(=O)N1CCN(C(=O)C2CCN(C(=O)c3ccc([N+](=O)[O-])cc3)CC2)CC1` gave VDR inh -1.7%.
Screening O=C(NCCC1CCCCN1S(=O)(=O)c1ccc(F)cc1)C(=O)Nc1ccccc1 (stereo unspecified) returned VDR inh -14.1%.
COc1ccc(S(=O)(=O)N2CCCOC2CNC(=O)C(=O)NCc2ccccn2)cc1 (stereo unspecified) was read as VDR inh -1.8%.
`CC(=O)Nc1ccccc1C(=O)C(=O)Nc1cccc(C(=O)NCC2CCCO2)c1` (stereo unspecified) gave VDR inh 13.5%.
For O=C(COC(=O)c1ccc(O)cc1)Nc1cc(S(=O)(=O)N2CCOCC2)ccc1N1CCOCC1 the results were VDR inh -5.8%.
For COc1cc(/C=C/C(=O)Nc2nnc(CC(C)(C)C)s2)cc(OC)c1OC the results were VDR inh 79.4µM*.

Additional compounds.
Screening Cc1nc2ccccc2c2c1C(=O)N(Cc1cccnc1)C2=O returned VDR inh -1.1%.
Screening CCc1ccc(-c2cc(C(F)(F)F)n3nc(C(=O)Nc4c(C)nn(Cc5ccc(F)cc5)c4C)cc3n2)s1 returned VDR inh 3.4%.
Screening COC(=O)[C@H](Cc1ccc(O)cc1)NC(=O)Cn1cnc2c(OCc3ccccc3)ncnc21 returned VDR inh -11.0%.
Screening COCC(C)OC(=O)c1c(N)n(CC(C)C)c2nc3ccccc3nc12 (stereo unspecified) returned VDR inh 17.8%.
For O=C(CN1CCCc2ccccc21)Nc1cccc(S(=O)(=O)N2CCOCC2)c1 the results were VDR inh 1.5%.
`O=C1OC(c2cccs2)=N/C1=C\c1ccc(-c2ccccc2Cl)o1` gave VDR inh 8.2%.
`CCN(Cc1ccccc1)C(=O)c1ccc(C(=O)N(CC)Cc2ccccc2)cc1` gave VDR inh -12.4%.
Screening CCCCNC(=O)Nc1ccccc1CC returned VDR inh 1.0%.
Cc1cccc(N2CCN(C(=O)CN3C(=O)COc4ccc(S(=O)(=O)N5CCOCC5)cc43)CC2)c1C was read as VDR inh -2.4%.
`CCN(CC)N=Nc1ccc(S(=O)(=O)Nc2nc(C)cc(C)n2)cc1` gave VDR inh 12.1%&-11.7%.
`Cc1cc(C)cc(C(=O)Oc2coc(CSc3nnc(NC(=O)C4CC4)s3)cc2=O)c1` gave VDR inh -6.5%.
C/C(=N\NC(=O)CCC(=O)NCc1ccccc1)c1ccc([N+](=O)[O-])cc1 was read as VDR inh -3.1%.
Cc1ccc2nc(C)c3c(c2c1)SCC3 was read as VDR inh 12.7%.
CC(NC(=O)COC(=O)CSc1ccc(F)cc1)c1ccc(F)cc1 (stereo unspecified) was read as VDR inh -12.4%.
For Cn1cc(S(=O)(=O)Nc2cccc3ccccc23)c(=O)n(C)c1=O the results were VDR inh 2.2%.
Screening O=C(Oc1ccccc1)N1CCC2(CC1)CCN(c1ccccn1)CC2 returned VDR inh -23.2%.
Screening CCNC(=O)C/C(C)=N/NC(=O)C1CCCCC1 returned VDR inh 4.4%.
Screening CC(C)(C)c1ccc(C(=O)COC(=O)CN2C(=O)NC3(CCCC3)C2=O)cc1 returned VDR inh 6.7%.
Screening C=CCn1c(N)c(C(=O)Nc2ccccc2OC)sc1=S returned VDR inh 0.7%.
NC(=O)NCCCC(=O)NCC(c1ccccc1Cl)c1c[nH]c2ccccc12 (stereo unspecified) was read as VDR inh 10.1%.
For CCOc1cc(CNc2ncnc3nc[nH]c23)ccc1OC the results were VDR inh -20.9%.
`Cc1ccc(C(=O)N/N=C\c2ccc([N+](=O)[O-])o2)cn1` gave VDR inh 6.3%.
CC(=O)C[C@H]1c2ccccc2S(=O)(=O)N1c1ccccc1 was read as VDR inh -7.1%.
Screening CCn1cc(C(C)(C)C)c(C#N)c1NC(C)=O returned VDR inh -2.5%.
N#C/C(=N\Nc1cccc(C(F)(F)F)c1)C(=O)c1ccsc1 was read as VDR inh -5.1%.
Cc1ccc2c(c1)C1CN(C)CCC1N2S(=O)(=O)c1ccc(Oc2ccc([N+](=O)[O-])cc2)cc1 (stereo unspecified) was read as VDR inh 3.9%.
CCC1CCCCN1CCCNC(=O)c1cc2c(=O)n(CC)c3ccccc3c2s1 (stereo unspecified) was read as VDR inh -11.0%.
COc1ccc(N2C(=O)N3[C@H](c4ccc(Cl)cc4)[C@@H]4C(=O)N(C5CCCCC5)C(=O)[C@@H]4[C@]3(C)C2=O)cc1 was read as VDR inh -4.3%.
For O=C(NNC(=O)c1ccccc1O)c1ccccc1O the results were VDR inh 10.5%.
COc1ccc(/C=N/NC(=O)Cc2ccc(Cl)cc2)cc1OC was read as VDR inh -10.2%.
`CCS(=O)(=O)c1ccc(-c2cccc(NC(=O)c3ccco3)c2)nn1` gave VDR inh 4.1%.
Screening COc1ccc2sc(-c3ccc(SC)cc3)c(C#CCO)c2c1 returned VDR inh 11.4%.
Screening CCCN(C(=O)CCNC(=O)c1ccc(Cl)cc1)c1c(N)n(Cc2ccccc2)c(=O)[nH]c1=O returned VDR inh -4.8%.
Screening O=C(N1CCCCC1)C1(S(=O)(=O)c2ccccc2)CC=CC1 returned VDR inh -15.9%.
`CN(C)S(=O)(=O)c1cccc(NC(=O)c2cccc(S(=O)(=O)N3CCCCC3)c2)c1` gave VDR inh -17.5%.
O=C1c2cccc3cccc(c23)C(=O)N1c1cccnc1 was read as VDR inh 18.7%.
Screening Cc1ccc(S(=O)(=O)N2CCCC2C(=O)N(C)Cc2cccs2)cc1 (stereo unspecified) returned VDR inh 1.2%.
Screening Cc1c(NC(=O)COC(=O)c2ccc[nH]c2=O)c(=O)n(-c2ccccc2)n1C returned VDR inh -22.3%.
For O=S(=O)(CCc1ccccc1)/N=C/c1cccs1 the results were VDR inh 7.6%.
CCOC(=O)C1CCN(C(=O)C2CCCN(c3ncnc4c3nc3n4CCCCC3)C2)CC1 (stereo unspecified) was read as VDR inh -12.7%.
Screening CCC(=O)N1c2ccccc2NC2=C(C(=O)CC(C)(C)C2)C1c1cccnc1 (stereo unspecified) returned VDR inh -9.7%.
For CC(=O)C1=C(c2ccccc2)N(C(C)=O)n2c(nnc2C2CCCCC2)S1 the results were VDR inh 2.0%.
`CCCCCCC(=O)Nc1ccc(S(=O)(=O)Nc2onc(C)c2C)cc1` gave VDR inh -11.8%.
`CCN(Cc1ccccc1)C(=O)CC1Oc2ccccc2NC1=O` (stereo unspecified) gave VDR inh -17.4%.
CCOc1ccc(NC(=O)Cn2c(=O)n(CCCCC(=O)NCc3ccc4c(c3)OCO4)c(=O)c3ccccc32)cc1 was read as VDR inh -8.3%.
Screening COc1ccc(S(=O)(=O)N2CCCCCC2)cc1C(=O)OCC(=O)NC(C)(C)C returned VDR inh 24.9%.
CO/N=C(/C(=O)N[C@@H]1C(=O)N2C(C(=O)O)=C(CSC(=O)c3ccco3)CSC12)c1csc(N)n1 (stereo partly specified) was read as VDR inh inconclusive.
`Cc1nn(CCC(=O)O)c(C)c1C` gave VDR inh -8.6%.
O=C(NCc1ccccc1)C12CC3CC(CC(Cl)(C3)C1)C2 was read as VDR inh 1.2%.
`CCOc1ccc(CN(C)C(=O)CNC(=O)c2ccc(Br)o2)cc1OC` gave VDR inh -17.6%.
O=C(CCC1CCCC1)NNC(=O)c1ccccc1O was read as VDR inh 13.0%.
`CCN(CC)C(=O)C1CCCN(c2ccc([N+](=O)[O-])cc2/C=N/NC(=O)c2cccc(O)c2)C1` (stereo unspecified) gave VDR inh -9.4%.
Screening COc1cc([N+](=O)[O-])ccc1NC(=O)CSc1nncn1-c1cccnc1 returned VDR inh 11.5%.
`CC(C)c1c(C(=O)Nc2ccccc2)c(-c2ccccc2)c(-c2ccc(F)cc2)n1CC[C@@H](O)C[C@@H](O)CC(=O)O` gave VDR inh inconclusive.
COCCNC(=O)C(=O)Nc1ccc2nc3n(c(=O)c2c1)CCCCC3 was read as VDR inh 8.2%.
For CC(=O)Nc1ccc2c(c1)C(=O)N(c1cccc3ccccc13)C2=O the results were VDR inh -15.5%.
`Oc1ccccc1-c1nnco1` gave VDR inh -14.3%.

Screens: PubChem, National Center for Advancing Translational Sciences (NCATS)
